Screening data from PubChem.
AF4-AF9 inh: inhibitors of AF4 peptide binding to AF9, primary screen, biochemical, AlphaScreen, biotin-AF4 peptide, FLAG-AF9, single point. AID 651704, 2012. 350,000 compounds, 0.47% hits. inhibition, % at 10 µM;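 active means every replicate reaching a set inhibition limit, whatever the replicate mean, cut at about 25% in these data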;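 further: 0% = plate neutral control median and 100% = total signal loss; the record names both 10 and 1 µM as test concentration; the first replicate is given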
Target sequence (P42568 whole entry, looked up): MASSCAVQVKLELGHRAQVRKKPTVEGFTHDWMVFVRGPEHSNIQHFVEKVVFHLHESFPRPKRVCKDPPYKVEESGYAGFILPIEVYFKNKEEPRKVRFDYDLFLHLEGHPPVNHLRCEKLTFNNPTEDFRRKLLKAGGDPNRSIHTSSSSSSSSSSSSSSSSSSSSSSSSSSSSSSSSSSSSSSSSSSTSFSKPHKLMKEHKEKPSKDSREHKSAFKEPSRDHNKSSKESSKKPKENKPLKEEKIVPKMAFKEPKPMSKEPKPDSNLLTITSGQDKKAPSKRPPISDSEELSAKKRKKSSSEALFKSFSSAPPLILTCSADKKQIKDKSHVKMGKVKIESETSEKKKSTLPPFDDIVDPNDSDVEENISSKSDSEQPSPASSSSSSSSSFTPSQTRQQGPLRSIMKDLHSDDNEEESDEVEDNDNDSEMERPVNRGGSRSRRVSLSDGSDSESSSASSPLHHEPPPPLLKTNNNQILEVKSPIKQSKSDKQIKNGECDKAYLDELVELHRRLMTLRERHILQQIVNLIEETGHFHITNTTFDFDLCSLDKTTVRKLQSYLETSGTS
rRNA inh HTS: reduced GFP signal of wild-type E. coli, primary screen, bacterial rRNA inhibitor project, GFP/RFP fluorescence, OD600, single point; E. coli WT GFP vs humanized-ribosome RFP mutants, 24 h; hits give low values; DMSO median 0, no signal -100; GFP signal change (wild-type ribosome), % (concentration not given with the values); 350,000 compounds, 1.6% hits; AID 720706, 2013;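 active means significant combined selectivity score with lowered wild-type GFP, culture density cut under 30%, mutant RFP and density less affected; inactive means any of these conditions unmet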; further: one replicate is shown; some compounds called inactive have numbers as strong as hits
FGF22 binding: binders of human FGF22 protein, primary screen, FGF22 synaptogenesis inhibitor project, biophysical, thermal shift, single point. Fibroblast growth factor 22 (Homo sapiens), Q9HCT0. 340,000 compounds, 1.5% hits. AID 651658, 2012. calls only at 9.99 µM. recombinant FGF22 thermal shift, SYPRO orange fluorescence; percent of sucrose octasulfate shift, DMSO zero;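 active means melting point raised past a set limit in the mean and every replicate; three in four hits are not shown here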
Target sequence (Q9HCT0 whole entry, looked up): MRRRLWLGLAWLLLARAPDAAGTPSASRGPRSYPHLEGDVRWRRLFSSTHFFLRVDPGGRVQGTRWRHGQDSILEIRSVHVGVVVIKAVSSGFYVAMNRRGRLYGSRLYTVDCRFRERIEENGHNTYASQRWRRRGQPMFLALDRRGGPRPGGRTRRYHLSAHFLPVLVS
rRNA inh HTS OD600: further read-out of rRNA inh HTS, marked with its call; OD600 change, %; measured here: OD600 growth;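 optical density of the mix in the first replicate; 0 = DMSO median and -100 = no signal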
rRNA inh HTS RFP: recorded beside rRNA inh HTS, whose call it bears; RFP signal change, %; measured here: RFP humanized mutant strains;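 first replicate; 0 = DMSO median and -100 = no signal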
* marks the source's active call; other numbers are inactive results; i = inactive; & = joins results of further samples. Some of the compounds tested; the hit share may differ from the screen's.

SMILES	AF4-AF9 inh	rRNA inh HTS	rRNA inh HTS OD600	rRNA inh HTS RFP	FGF22 binding
CO[C@H]1CN(C)C(=O)c2cc(NC(=O)Nc3ccccc3)ccc2OC[C@@H](C)N(C(=O)CC2CC2)C[C@H]1C	1.5	-2.4	-8.2	1.7	i
CN(C)CCCNC(=O)[C@H]1[C@H](CO)[C@H]2Cn3c(ccc(-c4ccccc4)c3=O)[C@@H]1N2C	-1.1	1.9	15.7	-1.9	i
O=S(=O)(Cc1ccccc1)NCC[C@@H]1CC[C@H](NS(=O)(=O)c2ccc(F)cc2)[C@@H](CO)O1	-9.7	0.6	-2.2	2.4	i
CC(C)(C)c1cc2nc(NCCc3ccc(S(N)(=O)=O)cc3)ccn2n1	-1.6	-6.4	-3.1	-2.3	i
COCCNC(=O)C1CCCN(C(=O)c2ccc(C(F)(F)F)nc2C)CC1 (centres undefined)	-1.3	26.5	39.0	-0.6	i
COc1ccc(NC(=O)N(C)C[C@H]2OCCCC[C@H](C)Oc3ccc(NC(=O)CCCN(C)C)cc3C(=O)N([C@H](C)CO)C[C@@H]2C)cc1	1.4	0.3	-6.4	1.0	i
C[C@H](O)C#Cc1ccc([C@@H]2[C@@H](CO)N3CCCCN(S(=O)(=O)Cc4ccccc4)C[C@@H]23)cc1	-9.2	-2.0	1.1	0.4	i
CCNC(=O)C[C@H]1CC[C@H]2[C@H](COc3ccc(NC(=O)Cc4ccccc4)cc3C(=O)N2C)O1	-0.7	-0.2	-5.3	7.3	i
COCC(=O)Nc1ccc2c(c1)C(=O)N(C)C[C@@H](OC)[C@@H](C)CN(C(=O)c1cnccn1)[C@@H](C)CO2	2.0	-0.7	2.1	1.6	i
CCc1nc2ccc(C(=O)NCCCn3ccnc3)cn2c1N(C)C(=O)C1CCCCC1	0.8	10.0	14.4	-1.3	i
C[C@H]1CCCCO[C@@H](CN(C)C(=O)c2ccccc2)[C@@H](C)CN([C@@H](C)CO)C(=O)c2cc(NS(=O)(=O)c3cccs3)ccc2O1	0.3	-2.6	-6.0	-1.0	i
C[C@H](CO)N1C[C@H](C)[C@H](CN(C)C(=O)C2CCOCC2)Oc2ncc(-c3cccc(F)c3)cc2C1=O	-5.5	2.4	2.8	0.4	i
COc1ccc(NC(=O)N(C)C[C@H]2Oc3ncc(C#C[C@@H](C)O)cc3C(=O)N([C@H](C)CO)C[C@@H]2C)cc1	-3.6	3.6	8.4	1.1	i
COCC(=O)N1CC(=O)N2[C@H](CO)[C@@H](c3ccc(-c4ccccc4F)cc3)[C@@H]2C1	-9.4	-1.4	-1.5	-2.4	i
COc1ccc(NC(=O)Nc2ccc3c(c2)OC[C@H](C)NC[C@H](C)[C@H](OC)CN(C)C3=O)cc1	1.8	0.5	-4.1	1.7	i
C[C@@H]1CN([C@H](C)CO)C(=O)c2cc(NS(=O)(=O)c3cn(C)cn3)ccc2O[C@@H](C)CCCCO[C@@H]1CN(C)S(=O)(=O)c1cccs1	-1.6	0.6	1.0	-0.5	i
C[C@@H]1CN([C@@H](C)CO)C(=O)Cc2cc(NC(=O)CCCN(C)C)ccc2O[C@H]1CN(C)Cc1ccc(-c2ccccc2)cc1	15.0	-2.3	-16.4	9.6	i
C[C@H](CO)N1C[C@H](C)[C@H](CN(C)Cc2ccncc2)OCCCC[C@H](C)Oc2ccc(NC(=O)Nc3cccc4ccccc34)cc2C1=O	-1.1	-5.4	-11.6	4.5	i
CNC[C@H]1Oc2ccc(NC(=O)Nc3cccc4ccccc34)cc2C(=O)N([C@@H](C)CO)C[C@H]1C	1.4	1.8	-7.4	-0.1	i
COc1ccc(NC(=O)Nc2ccc3c(c2)C(=O)N([C@@H](C)CO)C[C@H](C)[C@@H](CN(C)C(=O)Nc2c(C)noc2C)O3)cc1	-4.1	3.3	11.3	0.8	i
CCCNC(=O)N(C)C[C@H]1Oc2ncc(-c3cccc(C#N)c3)cc2C(=O)N([C@H](C)CO)C[C@H]1C	-2.6	-0.2	14.1	-1.2	i
COc1cc(COc2ccc(S(=O)(=O)N3CCOCC3)cc2[N+](=O)[O-])ccc1OC(F)F	-18.9	2.6	5.3	3.2	i
Cc1ccc(-c2ccc([C@H]3[C@@H](CO)N4C(=O)CN(C(=O)NC(C)C)C[C@@H]34)cc2)cc1	-0.9	4.2	-8.7	2.1	i
COc1ccc2c3c(n(C)c2c1)[C@H](CO)N(C(=O)CC1CC1)CC31CCN(C(=O)C2CC2)CC1	-1.1	-1.5	0.9	0.2	i
O=C(C[C@@H]1CC[C@H]2[C@@H](COC[C@@H](O)CN2C(=O)c2ccc(F)cc2)O1)N1CCOCC1	-4.2	4.7	9.9	-0.4	i
COc1ccc(CN(C)C[C@@H]2Oc3ccc(NC(=O)Nc4cccc5ccccc45)cc3C(=O)N([C@H](C)CO)C[C@@H]2C)cc1	9.3	1.9	-13.5	10.0	i
C#CCN(C(=O)C1CCC(=O)N(CCc2cccc(F)c2)C1)C1CCCCC1 (centres undefined)	-0.1	-3.6	-22.6	-4.7	i
Cc1ccc(-c2ccc3c(c2)O[C@H](CN(C)Cc2ccccn2)[C@H](C)CN([C@H](C)CO)S3(=O)=O)cc1	8.6	-47.6	-60.5	10.2	i
CN(C)C(=O)C[C@H]1C[C@H]2c3cc(NC(=O)Nc4ccc(C(F)(F)F)cc4)ccc3O[C@H]2[C@H](CO)O1	7.5	-14.9	-45.0	-3.1	i
C[C@@H]1CN([C@H](C)CO)C(=O)c2cc(C#CC(C)(C)O)cnc2O[C@@H]1CN(C)C(=O)CN(C)C	-1.4	-1.2	14.7	-4.6	i
Cc1ccc(-c2noc(CCC(=O)Nc3cccc(C(=O)NC4CC4)c3)n2)cc1	2.7	-0.6	-7.7	-4.3	i
C[C@H](CO)N1C[C@H](C)[C@H](CN(C)C(=O)Nc2ccccc2)Oc2ncc(/C=C/c3ccccc3)cc2C1=O	9.3	-7.6	-29.8	27.0	i
C[C@@H]1CN([C@H](C)CO)C(=O)Cc2cc(NS(=O)(=O)c3cccs3)ccc2O[C@H]1CN(C)Cc1ccc(C(=O)Nc2ccccc2N)cc1	-3.0	-5.3	-10.8	-1.8	i
C[C@@H]1CN([C@@H](C)CO)C(=O)c2cc(Br)cnc2O[C@H]1CN(C)Cc1ccccc1C(=O)O	-2.8&-9.6	10.3&2.7	13.3&1.0	-3.3&-0.9	i
C[C@H](CO)N1C[C@H](C)[C@H](CN(C)C(=O)C2CC2)Oc2ncc(-c3cccc(C#N)c3)cc2C1=O	-4.9	0.1	4.4	0.0	i
CCNC(=O)Nc1ccc2c(c1)C(=O)N(C)[C@@H]1CC[C@@H](CC(=O)NCC3CCCCC3)O[C@@H]1CO2	0.2	0.6	4.6	-3.0	i
O=C(Nc1ccccc1Cl)N1[C@H](CO)[C@H]2c3ccccc3NC[C@H]21	2.0	-0.2	0.3	-3.7	i
CN1c2ccc(-c3cccc(F)c3)cc2[C@@H]2[C@@H](CCN2C(=O)Nc2ccccc2F)[C@@H]1CO	6.0	-3.8	8.1	-1.2	i
COc1cccc(Nc2nc3cc(C)ccc3cc2C)c1	-7.2	-23.4	-48.8	-7.4	i
O=C(Nc1cccc(Cl)c1)N[C@H]1CC[C@H](CCNC(=O)C2CCC2)O[C@@H]1CO	-11.8	-3.2	-5.6	1.5	i
C=CCC1(CC=C)CCCN1C(=O)c1ccc2oc(CCCC)nc2c1	-2.6	-21.9	-61.3	-5.3	i
C[C@H](CO)N1C[C@H](C)[C@H](CN(C)S(C)(=O)=O)Oc2ccc(NC(=O)NC3CCCCC3)cc2CC1=O	-9.1	3.8	4.4	-2.6	i
CC(C)(C)[S@](=O)N1Cc2cc(C(=O)NCc3ccc4c(c3)OCO4)nc(-c3cccc(-c4ccncc4)c3)c2[C@@H]1CCO	-0.4	-7.7	-10.3	3.8	i
C[C@H](CO)N1C[C@H](C)[C@H](CN(C)Cc2ccc(C(=O)O)cc2)Oc2ccc(NS(=O)(=O)c3ccc(F)cc3)cc2C1=O	1.3	3.2	4.3	-1.4	i
O=C1NC(Cc2ccccc2)c2nc3ccccc3c(=O)n2-c2cc3ccccc3cc21 (centres undefined)	3.0	-1.7	15.8	3.6	i
CC(=O)O/N=C1\C(=O)N(Cc2ccc(C)cc2)c2ccccc21	2.7	-58.1	-76.5	-20.6	i
CCCNC(=O)N1[C@H](CNC(=O)c2ccc(F)cc2)[C@H](c2ccccc2)[C@@H]1CO	0.9	-11.8	-15.6	-2.6	i
CO[C@H]1CN(C)C(=O)c2ccc(NS(=O)(=O)c3ccccc3C)cc2OC[C@@H](C)N(C)C[C@H]1C	-1.9	2.3	1.7	-0.1	i

Shown in CSV form: 2 of the compounds above
molecule,AF4-AF9 inh,rRNA inh HTS,rRNA inh HTS OD600,rRNA inh HTS RFP,FGF22 binding
C[C@H](CO)N1C[C@H](C)[C@H](CN(C)Cc2ccc(C(=O)O)cc2)Oc2ccc(NS(=O)(=O)c3ccc(F)cc3)cc2C1=O,1.3,3.2,4.3,-1.4,i
O=C1NC(Cc2ccccc2)c2nc3ccccc3c(=O)n2-c2cc3ccccc3cc21 (centres undefined),3.0,-1.7,15.8,3.6,i

Looked up above.
In rRNA inh HTS OD600, C[C@@H]1CN([C@@H](C)CO)C(=O)Cc2cc(NC(=O)CCCN(C)C)ccc2O[C@H]1CN(C)Cc1ccc(-c2ccccc2)cc1 has the entry -16.4
In AF4-AF9 inh, CNC[C@H]1Oc2ccc(NC(=O)Nc3cccc4ccccc34)cc2C(=O)N([C@@H](C)CO)C[C@H]1C has the entry 1.4
In rRNA inh HTS OD600, COc1ccc(NC(=O)Nc2ccc3c(c2)OC[C@H](C)NC[C@H](C)[C@H](OC)CN(C)C3=O)cc1 has the entry -4.1
In rRNA inh HTS, C[C@H]1CCCCO[C@@H](CN(C)C(=O)c2ccccc2)[C@@H](C)CN([C@@H](C)CO)C(=O)c2cc(NS(=O)(=O)c3cccs3)ccc2O1 has the entry -2.6

Next section:
SMILES	AF4-AF9 inh	rRNA inh HTS	rRNA inh HTS OD600	rRNA inh HTS RFP	FGF22 binding
Cc1noc(C)c1NC(=O)Nc1ccc2c(c1)CC(=O)N([C@@H](C)CO)C[C@@H](C)[C@@H](CN(C)C(=O)Nc1ccc(C(F)(F)F)cc1)O2	-0.5	3.4	5.7	-0.8	i
C[C@H]1CN([C@@H](C)CO)C(=O)Cc2cc(NC(=O)CCCCCC(=O)Nc3ccccc3N)ccc2O[C@@H]1CN(C)CC1CC1	4.8	3.1	9.2	-0.4	i
COc1ccc(Cn2c(=O)oc3ccccc32)cc1OC	-2.6	-4.2	-5.8	-4.2	i
COc1ccc(NC(=O)N(C)C[C@H]2Oc3ccc(NC(=O)Cn4cnnn4)cc3C(=O)N([C@H](C)CO)C[C@H]2C)cc1	-0.7	-2.2	-5.5	-1.0	i
COc1ccc2c3c([nH]c2c1)[C@H](CO)N(C(=O)c1ccncc1)CC31CCN(C(=O)Nc2cccc(F)c2)CC1	-0.2	-4.5	-5.3	-0.8	i
O=C(CCN1CCCCC1)N[C@@H]1C=C[C@H](CC(=O)N2CCC(Cc3ccccc3)CC2)O[C@@H]1CO	3.9	0.1	-3.6	0.6	i
C[C@@H]1CN([C@@H](C)CO)C(=O)c2cc(Br)cnc2O[C@H]1CN(C)C(=O)Nc1ccc2c(c1)OCO2	-0.5&-1.7	5.7&-3.0	7.1&14.0	-4.8&2.4	i
CCCc1c(C(=O)N/N=C/c2c[nH]c3ccccc23)nnn1-c1nonc1N	-0.6	-10.5	-7.3	4.3	i
COc1ccccc1NC(=O)N[C@H]1C=C[C@H](CC(=O)N[C@H](C)c2ccccc2)O[C@@H]1CO	-2.1	-1.3	-2.1	0.1	i
Cc1cc(-c2ccc(S(=O)(=O)NCc3ccc(Cl)cc3)cc2)on1	-4.9	-1.8	6.1	-1.4	i
CCCCCC(=O)N1C[C@@H](O)[C@H](n2cc(-c3ccc(F)cc3)nn2)C[C@@H]1c1ccc(Cl)cc1	-1.4	-4.3	-36.5	-2.1	i
COc1ccc(-c2csc(C(O)c3cccc(Cl)c3)n2)cn1 (centres undefined)	-5.7	-43.1	-63.0	-8.8	i
CCn1cc(/C=C(\NC(=O)c2cc(OC)c(OC)c(OC)c2)C(=O)N2CCOCC2)c2ccccc21	2.3	-0.5	-7.1	1.7	i
COCC(=O)Nc1ccc2c(c1)C(=O)N(C)C[C@H](OC)[C@H](C)CN(C(=O)CC1CC1)[C@H](C)CO2	-4.6	2.0	2.5	-0.8	i
CCCc1nc2cc(C)c(Br)c(C)n2c1Cc1ccccc1OC	1.8	17.0	11.8	16.4	i
C[C@H]1CN([C@@H](C)CO)C(=O)c2cc(NS(C)(=O)=O)ccc2O[C@H]1CN(C)CC1CCCCC1	-29.4	3.5	10.5	-0.1	i
CN1C(=O)c2cc(NC(=O)c3cccc(C(F)(F)F)c3)ccc2OC[C@H]2O[C@@H](CC(=O)NCCN3CCCC3)CC[C@H]21	4.6	1.6	-1.0	0.3	i
